Ecoli growth: inhibitors of Escherichia coli growth; OD600, 23 h; stronger effect = lower value; AID 1053175; 0.21% of 330,000 active; OD600 absorbance (test concentration not listed);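 active = OD600 absorbance below the run mean of sample wells minus 3.6 SD, in any replicate, cut at about 0.56 in these data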;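 also: stock transfer was 300 nL into about 60 µL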
* marks the source's active call; other numbers are inactive results; & = joins results of further samples. This is a subset; count on the stated rates, not on these rows.

Ecoli growth	Structure
0.677	CC(CC(=O)Nc1ccc2c(c1)OCCO2)=NNC(=O)COc1cccc(C)c1
0.653	CN1CCN(c2ccccc2C=NNC(=O)c2cccnc2)CC1
0.714	COc1cc(C=NNC(=O)c2ccccc2F)ccc1Oc1ccc([N+](=O)[O-])cn1
0.637	CC(=O)c1ccc(NN=C(C(N)=O)C2=NC(C)(C)Cc3ccccc32)cc1
0.707	N#CC(=NNc1cccc2ccccc12)c1nnc2n1CCCCC2
0.789	O=C(NN=Cc1ccc(Cl)cc1Cl)c1sccc1-n1cccc1
0.703	O=C(NN=Cc1cnc(N2CCOCC2)s1)c1ccccc1
0.686	Oc1ccc(Br)cc1C=NNC(=S)NCCc1ccccc1
0.722	O=C1C2C(C=Cc3ccccc3)N3C(=O)CN(CC4CC4)C(=O)[C@@]3(Cc3ccccc3)C2C(=O)N1c1ccccc1 (stereo partly specified)
0.64	CCOc1ccc(C=NNC(=O)c2cc(-c3ccccc3)nc3ccccc23)cc1O
0.698	Cc1ccc(-c2n[nH]c(=S)n2N=Cc2cccs2)cc1
0.742	O=C(CNC(=O)C(c1ccccc1)c1ccccc1)NN=Cc1ccc2c(c1)OCO2
0.638	COC(=O)[C@]1(C)NC(c2ccc(SC3CCCCC3)c(OC)c2)C2C(=O)N(C)C(=O)C21 (stereo partly specified)
0.698	COc1cc(OC)cc(C(=O)NN=Cc2ccoc2)c1
0.659	O=C(CN1CCCCCC1)NN=Cc1cccs1
0.678	CCN(CC)c1ccc(C=NOC(C)C(=O)Nc2ccc(C)cc2)cc1 (stereo unspecified)
0.683	O=C(O)c1cc(NN=Cc2cccc3ccccc23)ccc1Cl
0.624	C(=NNc1nc2ccccc2[nH]1)c1ccc2c(c1)OCO2
0.713	C=CCN1C(=O)C(CC(=O)Nc2ccccc2F)SC1=Nc1nccs1 (stereo unspecified)
0.711	Cc1c(NC(=O)C(=Cc2cccs2)NC(=O)c2ccccc2)c(=O)n(-c2ccccc2)n1C
0.751	CCOC(=O)C1=C(N)n2c(sc(=Cc3cccnc3)c2=O)=C(C(=O)OC)C1c1cccnc1 (stereo unspecified)
0.719	COc1ccc(CNC(=S)NN=Cc2ccc(OC)c(OC)c2)cc1
0.623	COc1ccc(C(C)=NNC(=O)c2cccc(S(=O)(=O)N3CCCC3)c2)c(O)c1
0.732	CC(=O)Nc1ccc(C=NNC(=S)NC(C)C)cc1
0.713	Cn1cccc1C=NNC(=O)Cc1cccc2ccccc12
0.72	O=C(O)COc1ccc(C=NNC(=O)C2CCCN2S(=O)(=O)c2ccc(Cl)cc2)cc1 (stereo unspecified)
0.615	Cc1ccc(C=NN2CCN(c3ccccn3)CC2)cc1
0.748	N#CCCNN=C(Cc1nc2ccccc2[nH]1)c1ccccc1
0.694	CS(=O)(=O)Oc1ccc(C=NNC(=O)c2ccncc2)cc1
0.638	O=C(NN=Cc1ccc(OC(=O)c2cccc(Br)c2)cc1)c1cccnc1
0.693	O=C(CC1CC=CCCC(Cc2ccc(F)cc2)C(=O)OCCNC1=O)NC(CO)Cc1ccccc1 (stereo unspecified)
0.712	COc1cc(C=NNC(=O)c2cc(-c3ccccc3Cl)nc3ccccc23)cc(OC)c1O
0.671	O=C(O)C=CC(=O)Nc1ccc(OC(F)(F)Cl)cc1
0.698	Cc1c(OC2OC(CO)C(O)C(O)C2O)c(CO)c(OC2OC(CO)C(O)C(O)C2O)c2c1OC(c1ccccc1)CC2O (stereo unspecified)
0.742	Cc1ccc(N2CN=c3sc(=Cc4cccnc4)c(=O)n3C2)cc1
0.679	Cc1ccc(C=NNC(=O)C(c2ccncc2)N2CCOCC2)cc1 (stereo unspecified)
0.724	CSCCC(NC(=O)c1ccccc1)C(=O)NN=C(C)c1ccccc1 (stereo unspecified)
0.679	CC1NC(=O)C(CCC(N)=O)NC(=O)c2cc([N+](=O)[O-])cc(I)c2NCCCC(C(N)=O)NC1=O (stereo unspecified)
0.721	FC(F)Oc1ccc(C=Nc2c(-c3ccc(OC(F)F)cc3)nc3n2CCS3)cc1
0.694	CC(=NNC(=O)c1cccc(S(=O)(=O)N2CCOCC2)c1)c1cc2ccccc2o1
0.705	Cn1ncc(C#N)c1N=CN(Cc1ccccc1)Cc1ccccc1
0.702	O=C(CNC(=O)c1ccncc1)NN=Cc1cccc([N+](=O)[O-])c1
0.702	Cc1nn(-c2ccccc2)c(C)c1C=NNC(=O)CSc1nnc(SCc2ccccc2Cl)s1
0.713&0.722	COC(=O)[C@@]12CCCCN1C(c1ccc(-c3ccccc3)cc1)C1C(=O)N(C)C(=O)C12 (stereo partly specified)
0.653	CCCCC1CNCCN1CCCc1cc(OC)c(OC)c(OC)c1 (stereo unspecified)
0.681	CCN(CC)c1ccc(C=NNC(=O)c2cccc(S(=O)(=O)Nc3ccccc3OC)c2)cc1
0.67	COc1ccc(C=NNC(=O)c2cccc([N+](=O)[O-])c2)cc1Cn1cc([N+](=O)[O-])cn1
0.714	Cc1cccc(COc2ccccc2C=NNc2ccc([N+](=O)[O-])cc2)c1
0.726	O=C(C=NNC(=O)c1ccccc1Br)c1ccccc1
0.694	CCOc1cc(C=NNC(=O)c2ccncc2)ccc1OC(=O)c1ccco1
0.692	Oc1ccc(C=NNc2cc(N3CCCC3)nc(N3CCCC3)n2)cc1O
0.692	Cc1ccc(C(N)=NOC(=O)C(C)c2ccc([N+](=O)[O-])cc2)cc1 (stereo unspecified)
0.632	O=C(NN=Cc1ccccc1[N+](=O)[O-])C(=O)N1CCCC1
0.717	N#CC(=Cc1c(N(Cc2ccccc2)Cc2ccccc2)nc2ccccn2c1=O)C(N)=O
0.686	COC(=O)c1ccc(C=NN2CCN(Cc3ccc(C)cc3C)CC2)cc1
0.733	Cc1ccc(C=NNC(=O)C2(C)CC2(Br)Br)cc1 (stereo unspecified)
0.667&0.701	CC(NC(=O)c1nc[nH]c1C(=O)NC(CCCCNC(=O)OC(C)(C)C)C(=O)OC(C)(C)C)c1ccccc1 (stereo unspecified)
0.69	C#CCOCCOCCOCCNc1nc(N2CCN(C(=O)C(CO)n3cc(C(N)C(C)C)nn3)CC2)nc(N2CCN(C(=O)C(CCCCN)n3cc(C(N)C(C)CC)nn3)CC2)n1 (stereo unspecified)
0.669	CCOc1ccc2ccc(OCC)c(C=Nn3cnnc3)c2c1
0.713	Cc1nc2ccccc2n1CC(=O)NN=Cc1cccs1

The list continues.
Ecoli growth	Structure
0.665	CCCCCN1CC=CC(c2ccc(OC)cc2)N(Cc2ccc(F)cc2)C(=O)C1 (stereo unspecified)
0.626	CC(NC(=O)c1nc[nH]c1C(=O)N1CCN(c2ccccc2)CC1)C(=O)OCc1ccccc1 (stereo unspecified)
0.662	Oc1ccc(C=NNc2ccnc3cc(Cl)ccc23)cc1O
0.681	N#CC(=C1C(=O)Nc2ccc(Br)cc21)c1ccccn1
0.694	C=CCN1C(=O)C(=Cc2ccc(Cl)cc2)N=C1SCC(=O)NC1CCCCC1
0.711	Cc1nc(N2C(=O)C(=O)C(=C(O)c3ccccc3)C2c2ccco2)sc1C (stereo unspecified)
0.707	CCOc1cc(C=NNC(=O)c2ccc(NC(=O)C3CC3)cc2)ccc1O
0.526*	COC(=O)c1ccc(C=NOCC(=O)Nc2cc(F)ccc2F)cc1
0.703	CCOC(=O)C1C2COc3ccc(C)cc3C2N2C(=O)CN(CC3CCCO3)C(=O)[C@@]12C (stereo partly specified)
0.692	CC1OC(OC2C(COC3OC(CO)C(O)C(O)C3O)OC(OC3CC[C@]4(C)C(CC[C@@]5(C)C4C=C[C@]46OC[C@@]7(CCC(C)(C)CC74)C(O)C[C@@]56C)C3(C)C)C(O)C2O)C(O)C(O)C1O (stereo partly specified)
0.691	Cc1ccc(S(=O)(=O)N2C(c3cccc(C)c3)CC=C(C(=O)O)C2c2ccccc2F)cc1 (stereo unspecified)
0.773	Cc1ccc(C=c2sc3nc(-c4ccco4)nn3c2=O)o1
0.669	COc1ccc(N(CC(=O)NN=Cc2ccc(F)cc2)S(=O)(=O)c2ccccc2)cc1
0.721	N/C(=N\N=Cc1ccco1)SC1CC(=O)N(c2ccccc2)C1=O (stereo unspecified)
0.72	Cc1ccccc1-c1nc2ccccc2c(=O)n1N=Cc1ccccc1[N+](=O)[O-]
0.706	C=C(C)C1CC=C(C)C(=NNC(=O)COc2ccc(C)cc2)C1 (stereo unspecified)
0.694	Fc1cccc(CCN2C(=S)NCC2Cc2ccccc2)c1 (stereo unspecified)
0.694	COc1ccc(C=C2SC(=O)NC2=O)cc1
0.651	ON=C1CCCc2ccccc21
0.714	CCOc1ccccc1C(=O)NN=Cc1ccoc1
0.576	CC(C)c1cc(C(=O)NN=C/C(Br)=C/c2ccccc2)n[nH]1
0.673	CC(=O)CC1c2ccccc2S(=O)(=O)N1C1CCCCC1 (stereo unspecified)
0.66	CC(C)(C)c1ccc2c(c1)OC(C(=O)NN=Cc1ccncc1)CO2 (stereo unspecified)
0.642	Cc1noc(C)c1S(=O)(=O)Nc1ccc2c(c1)CC(=O)N(C(C)CO)CC(C)C(CN(C)S(=O)(=O)c1ccc(F)cc1)O2 (stereo unspecified)
0.679	CCOC(=O)C1C2COc3cc(OC)ccc3C2N2C(=O)N(c3ccc(OC)cc3)C(=O)[C@@]12C (stereo partly specified)
0.714	COC(=O)NN=Cc1ccc(-c2cc(Cl)ccc2Cl)o1
0.683	CC(/C=C/c1ccccc1)=NNC(=O)CSc1ccccn1
0.727	NC(=O)C1CC2(CC(c3cccc(NC(=O)COc4ccc(Cl)cc4)c3)=NO2)CN1C(=O)CC(c1ccccc1)c1ccccc1 (stereo unspecified)
0.691	COC(=O)c1ccc(C=NOCC(=O)NCc2ccc(F)cc2)cc1
0.653	CC(=NOCC(=O)NCCCCCCNC(=O)CON=C(C)c1cccs1)c1cccs1

A second format for 14 compounds above:
SMILES | Ecoli growth
Fc1cccc(CCN2C(=S)NCC2Cc2ccccc2)c1 (stereo unspecified) | 0.694
COc1ccc(C=C2SC(=O)NC2=O)cc1 | 0.694
ON=C1CCCc2ccccc21 | 0.651
CCOc1ccccc1C(=O)NN=Cc1ccoc1 | 0.714
CC(C)c1cc(C(=O)NN=C/C(Br)=C/c2ccccc2)n[nH]1 | 0.576
CC(=O)CC1c2ccccc2S(=O)(=O)N1C1CCCCC1 (stereo unspecified) | 0.673
CC(C)(C)c1ccc2c(c1)OC(C(=O)NN=Cc1ccncc1)CO2 (stereo unspecified) | 0.66
Cc1noc(C)c1S(=O)(=O)Nc1ccc2c(c1)CC(=O)N(C(C)CO)CC(C)C(CN(C)S(=O)(=O)c1ccc(F)cc1)O2 (stereo unspecified) | 0.642
CCOC(=O)C1C2COc3cc(OC)ccc3C2N2C(=O)N(c3ccc(OC)cc3)C(=O)[C@@]12C (stereo partly specified) | 0.679
COC(=O)NN=Cc1ccc(-c2cc(Cl)ccc2Cl)o1 | 0.714
CC(/C=C/c1ccccc1)=NNC(=O)CSc1ccccn1 | 0.683
NC(=O)C1CC2(CC(c3cccc(NC(=O)COc4ccc(Cl)cc4)c3)=NO2)CN1C(=O)CC(c1ccccc1)c1ccccc1 (stereo unspecified) | 0.727
COC(=O)c1ccc(C=NOCC(=O)NCc2ccc(F)cc2)cc1 | 0.691
CC(=NOCC(=O)NCCCCCCNC(=O)CON=C(C)c1cccs1)c1cccs1 | 0.653

Ordered by formula weight (ascending): three of the compounds above.
Ecoli growth	Structure
0.683	CC(/C=C/c1ccccc1)=NNC(=O)CSc1ccccn1
0.691	COC(=O)c1ccc(C=NOCC(=O)NCc2ccc(F)cc2)cc1
0.691	Cc1ccc(S(=O)(=O)N2C(c3cccc(C)c3)CC=C(C(=O)O)C2c2ccccc2F)cc1 (stereo unspecified)

Next results follow:
Ecoli growth	Structure
0.663	O=c1c2c(-c3ccc(Cl)cc3)csc2ncn1N=Cc1cccc([N+](=O)[O-])c1O
0.698	NC(=O)C(Cc1cc2ccccc2s1)NC(=O)C1CC2(CC(c3cccc(NC(=O)C4CCC(=O)N4)c3)=NO2)CN1C(=O)C=CSc1ccccc1 (stereo unspecified)
0.693	CCCN(CCC)Cc1c(C(=O)NN=Cc2ccc(Br)cc2)nnn1-c1nonc1N
0.66	COc1ccc(C(=O)NN=C(C)CC(=O)Nc2ccccn2)cc1OC
0.711	COc1cccc(C=Nn2c(-c3cccs3)n[nH]c2=S)c1
0.608	CC(=NNC(=O)c1nnn(-c2nonc2N)c1CN1CCCCC1)c1ccccc1O
0.608	COc1ccc(C=NNC(=O)NC23CC4CC(CC(C4)C2)C3)c(OC)c1
0.714	CC(=NNC(=O)c1sc(=S)n(C)c1C)c1ccccc1
0.64	COc1ccc(C(C)=NN=C(C)c2ccc(OC)cc2OC)c(OC)c1
0.664	CCn1c(SCC(=O)NN=Cc2ccccc2OCC(=O)O)nnc1-c1ccc(C)cc1
0.636	Cn1cccc1C=NNC(=O)Cc1ccccc1
0.689	Cc1c(C=Nn2cnnc2)c2ccccc2n1CCOc1ccc(Cl)cc1
0.714	COc1ccccc1NS(=O)(=O)c1cc([N+](=O)[O-])ccc1NN=Cc1sc(N2CCOCC2)nc1-c1ccccc1
0.675	Cn1cc(C(=O)NN=Cc2cccc([N+](=O)[O-])c2)c2ccccc21
0.652	C#CCOCCOCCOCCNc1nc(N2CCOCC2)nc(N2CCN(C(=O)C(CCCN=C(N)N)n3cc(C(N)C(C)CC)nn3)CC2)n1 (stereo unspecified)
0.647	CC(=O)NN=C(C)c1ccc(Br)cc1Br
0.666	CCOC(=O)c1sc(N=CN(C)C)nc1C
0.693	COc1ccc(C=NNC(=O)c2ccc3c(c2)OCCO3)cc1[N+](=O)[O-]
0.678	O=C(CN1CCSCC1)NN=Cc1ccc(F)cc1F
0.644	COC(=O)c1ccc(C(NC(=O)c2ccco2)[C@]2(C)CC2C2CCCCC2)cc1 (stereo partly specified)
0.685	COc1ccccc1C=NNC(=O)c1c(C)nc2ccc(Cl)cn12
0.744	CN(CC1CCOCC1)C(=O)CC1C(=O)NCCN1CC=Cc1ccccc1 (stereo unspecified)
0.669	CCC(=O)Nc1ccc(C(=O)NN=Cc2c(C)[nH]c3ccccc23)cc1
0.732	CC(NC(=O)COc1ccc(C=NNS(=O)(=O)c2ccccc2)cc1)c1ccccc1 (stereo unspecified)
0.673	O=[N+]([O-])c1ccc(NN=C2CC3CC=CC23)c([N+](=O)[O-])c1 (stereo unspecified)
0.641	O=C(NN=Cc1cccnc1)c1ccccc1OCc1cccc(Br)c1
0.668	NC(=NOC(=O)CC1CCCCC1)c1cccc([N+](=O)[O-])c1

From PubChem
